CDC25B CDK2 inh: human CDC25B-CDK2/CyclinA binding inhibition; 0.72% of 94,000 active; z-score (concentration not given with the values); HTRF CDC25B-CDK2/CyclinA binding, anti-His/anti-Flag; hits give high values; AID 1259370;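 also: score is relative to mean and SD of negative controls; strong numbers were not always called active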
TAR Tat displ: HIV-1 TAR-Tat binding disruption | AID 1259389 | z-score (test concentration not listed) | 0.6% of 100,000 active | HIV-1 TAR RNA, Tat peptide displacement FRET; hits give high values;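 also: score is relative to mean and SD of negative controls; some compounds called inactive have numbers as strong as hits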
Active calls of the source: *; . = no result given.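 The calls were made as follows: active = z-score from 3 up in half or more of its runs; inactive = the rest.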

Screens in order: CDC25B CDK2 inh, TAR Tat displ
> O=C(Cn1ncn2nc(-c3ccco3)cc2c1=O)NCc1ccccn1
 : -0.54, 0.87
> COC(=O)c1ccc(C(=O)OC)c(NC(=O)NCCc2csc3c2CCCC3)c1
 : ., -0.47
> CSc1ncnc2c1sc1nc3c(cc12)COC(C)(C)C3
 : ., -0.05
> COc1ccc2c(c1)[C@@]1(C)CCC(=O)C[C@@H]1CC2
 : ., 2.9
> O=c1ccc(-c2ccc(S(=O)(=O)Nc3ccc(F)c(Cl)c3)s2)n[nH]1
 : ., -0.01
> CCOC(=O)c1noc2nc(C)nc(N3CCc4ccccc4C3)c12
 : ., 0.22
> CNC(=O)c1c(NC(=O)c2ccc(C(C)(C)C)cc2)sc2c1CCC2
 : ., 0.02
> Cc1cc(=O)nc2c3ccccc3n(CC(=O)N3CCN(c4ccccc4)CC3)n12
 : -1.2, 0.95
> CCN(CC(O)Cn1c2ccccc2c2ccccc21)S(=O)(=O)c1ccc(Cl)cc1 (stereo not drawn)
 : -2.9, .
> O=C1c2ccccc2C(=O)N1CN(CCSc1ccccc1)CN1C(=O)c2ccccc2C1=O
 : -2.4, .
> CCc1ccc(-c2cc(C)no2)cc1S(=O)(=O)Nc1cccc(C)c1C
 : ., 1.8
> COc1ccccc1/C=C1\N=C(SC)SC1=O
 : 0.89, 0.46
> CC(C)C(=O)Nc1sc2c(c1C(=O)O)CCCC2
 : -2.6, 1.2
> O=S(=O)(c1ccccc1)c1nnn2c1nc(N1CCOCC1)c1ccccc12
 : -0.24, 0.84
> Cc1ccc2c(C)c(C(=O)N(Cc3ccco3)C3CCS(=O)(=O)C3)oc2c1 (stereo not drawn)
 : -1.7, 1.9
> CSc1cccc(NS(=O)(=O)c2ccc(-c3cc(C)no3)s2)c1
 : ., -0.05
> COc1ccc(NC(=O)Nc2nnc(N(C)C3CCCCC3)s2)cc1OC
 : -1.4, -0.36
> Cc1cc(C)n(Cc2ccc(C(=O)N3CCN(c4ccc(=O)n(-c5ccc(F)cc5)n4)CC3)o2)n1
 : ., 1.8
> O=C(O)CCCc1cn(Cc2ccc(F)cc2)c2ccccc12
 : -0.09, 1.3
> CC1CCC(Nc2nc3ccccc3c3nc(-c4cccnc4)nn23)CC1 (stereo not drawn)
 : -1.4, 0.43
> CC(=O)N1N=C(c2ccc(C)c(Cl)c2)OC12CCCC2
 : -1.2, .
> C/C(=N\Nc1ccccc1)c1cc(Cl)cc(Cl)c1O
 : -1.4, .
> COc1ccc(CCNC(=O)/C(C#N)=C/c2ccc[nH]2)cc1OC
 : -1, .
> Cc1nnc(SCC(=O)N(C)c2ccccc2)c2cc3sccc3n12
 : ., 3
> CC(C)c1ccc2c(c1)NC(c1cccnc1)=NC(c1cccs1)=N2
 : -1.1, 0.18
> COc1cccc(-c2noc3ncnc(NCc4ccccc4)c23)c1
 : ., 0.22
> O=C(Nc1nc2ccc(S(=O)(=O)N3CCCC3)cc2s1)c1ccncc1
 : ., -1.6
> S=C1NCN(Cc2ccccc2)CN1C1CCCCC1
 : -1.1, .
> Cc1cccc(Cn2c(CN)nc3cccnc32)c1
 : 0.59, -1.8
> COc1ccc(-c2csc(Nc3ncccn3)n2)cc1
 : -1.2, .
> O=C(c1ccco1)N1CCN(c2nnc(Cc3ccncc3)c3ccccc23)CC1
 : 1, 0.24
> O=C(Nc1ccc2c(c1)OCO2)N1CCC2(CC1)Nc1cc(F)ccc1-n1cccc12
 : ., 0.12
> CCCCCOC(=O)C1=C(C)NC2=C(C(=O)CC(C)(C)C2)C1c1ccccn1 (stereo not drawn)
 : -1.9, 1.7
> CCOC(=O)c1c(C)oc2nc(C)nc(N(C)Cc3ccco3)c12
 : ., -0.33
> Cc1ccccc1Nc1nc2ccccc2c2nncn12
 : -2.1, 2
> C=CCOc1ccc(C2C(C#N)=C(N)Oc3cc4c(cc32)OCO4)cc1Cl (stereo not drawn)
 : 0.15, .
> CCOC(=O)c1c(NC(=O)c2nc(S(C)(=O)=O)ncc2Cl)sc(C)c1C
 : -0.97, -0.08
> CCCOC(=O)C1=C(C)NC2=C(C(=O)CC(C)(C)C2)C1c1ccccc1 (stereo not drawn)
 : -1.6, 0.75
> Cc1cc(C(=O)Nc2csc(-c3ccc(Cl)cc3)c2)c(C)o1
 : -0.62, .
> Cc1ccc(C2CC(=O)N3CN(CCc4ccccc4)CSC3=C2C#N)cc1 (stereo not drawn)
 : 2.7, -0.62
> COc1cccc(OCc2nc3ccccc3n2C)c1
 : -1.2, 2.4
> CC(=O)Nc1ccc(Br)cc1OC(F)(F)F
 : -1.9, .
> Cn1c2c(c(=O)n(C)c1=O)CN(CCCN1CCOCC1)CN2
 : -2, 1.4
> Cc1nc2nc(NCc3ccc(F)cc3)[nH]n2c(=O)c1C
 : -1.6, 0.82
> CCOc1ccc(OCC)c(NC2=NS(=O)(=O)C(c3ccc(C)c(C)c3)=C2C)c1
 : -5.4, 0.12
> CC(=O)NNS(=O)(=O)c1scc(S(=O)(=O)c2ccc(Cl)cc2)c1C
 : -2.1, .
> COc1cccc(C2Nc3ccccc3-n3cc4c(=O)n(C)c(=O)n(C)c4c32)c1 (stereo not drawn)
 : 0.06, 1.7
> CCC(=O)N1c2ccc(S(=O)(=O)CCC(=O)NCCC3=CCCCC3)cc2CC1C (stereo not drawn)
 : -1.5, .
> O=C(NCc1ccco1)c1ccc2c(c1)OCCCO2
 : -2.3, .
> Cc1oc(-c2cccc(Cl)c2)nc1CSc1nc2ncccc2[nH]1
 : ., 0.49
> Clc1ccc(C(c2ccccc2Cl)C(Cl)Cl)cc1 (stereo not drawn)
 : -0.45, 1.8
> COc1ccc2nc(NC(=O)C3CCCN(c4ncnc5c4nc4n5CCCCC4)C3)sc2c1 (stereo not drawn)
 : ., 1.8
> CC(CNc1c(-c2ccc(Cl)cc2)c(=O)c1=O)c1ccccc1 (stereo not drawn)
 : ., -0.61
> NC(=S)NC1CC2CC1C1C=CCC21 (stereo not drawn)
 : -2.4, .
> CN1CCN(c2ccccc2NS(=O)(=O)c2ccc3c(c2)oc(=O)n3C)CC1
 : -1.8, .
> Cc1ccc(-n2nnc(-c3nc(-c4cccnc4)no3)c2N)c(C)c1
 : ., -0.83
> C=CCC(C#Cc1ccccc1)N(C)C (stereo not drawn)
 : -0.91, 1.4
> CCc1ccc(C2C(C(=O)OCCOC)=C(C)N=C3SCCC(=O)N32)cc1 (stereo not drawn)
 : 0.58, -1.8
> O=C(CSc1n[nH]c(-c2ccncc2)n1)c1ccccc1
 : 0.23, -0.98
> C=CCNS(=O)(=O)c1cc2c3c(c1)CC(=O)N3CCC2
 : ., 0.71

Next structures.
Screens in order: CDC25B CDK2 inh, TAR Tat displ
> CCCSc1nc2c(c(=O)[nH]1)C(c1cccc(F)c1)C(C(=O)OC(C)C)=C(C)N2 (stereo not drawn)
 : -0.18, 0.91
> O=C1Nc2ccc(S(=O)(=O)NC3CCCCC3)cc2C1C1CCCC1 (stereo not drawn)
 : ., -0.59
> CCCCNc1nc(Oc2ccc(OCCC)nn2)nc(N(C)C)n1
 : -2.3, 0.61
> CN1C(=O)c2ccccc2C(C(=O)NCC2COc3ccccc3O2)C1c1cn(C)c2ccccc12 (stereo not drawn)
 : -3.4, .
> Cc1noc(/C=C/N2CCOCC2)c1S(=O)(=O)N1CCN(c2ccc(F)cc2)CC1
 : ., 1.4
> CCCCc1nc2sc3c(NCCCO)ncnc3c2c2c1COC(C)(C)C2
 : 0, 0.12
> O=C(Nc1csc2ccccc12)N1CCN(c2ccc(C(F)(F)F)cn2)CC1
 : -2.4, .
> CC(C)C(=O)Nc1ccc(S(=O)(=O)Nc2ccc3c(c2)CC(=O)N3)cc1
 : ., 1.2
> O=C(NC(=O)c1csc(-c2ccc(C(F)(F)F)cc2Cl)n1)Nc1ccc(F)cc1
 : -2.7, .
> CCSc1ncc(Cl)c(C(=O)Nc2nnc(C)s2)n1
 : -0.96, 2.3
> Cc1cc(C)nc(N2CC(=O)N(CCOc3ccc(Br)cc3)C2=O)n1
 : -2.8, 0.72
> Cn1cc(S(=O)(=O)N2CCc3ccccc32)cc1C(=O)Nc1cccc(F)c1
 : ., -0.94
> CS(=O)(=O)c1ccc2nc(NC(=O)Nc3ccc(F)cc3)sc2c1
 : -2, 0.39
> CCCNC(=O)N1CCCN(c2nc3cc(F)ccc3n3cccc23)CC1
 : ., 0.95
> COc1ccc(-n2c(=O)c(C#N)cc3c(=O)n4ccccc4nc32)c(OC)c1
 : 0.96, -5
> CCc1nc2nc(C)cc(N3CCN(Cc4ccc5c(c4)OCO5)CC3)n2n1
 : ., 1.6
> Cc1ccc2oc(C(=O)NCc3ccc4c(c3)OCO4)cc(=O)c2c1
 : -0.84, 1.1
> CCOC(=O)c1ccc(N2C(=O)c3n[nH]c(-c4ccco4)c3C2c2cccnc2)cc1 (stereo not drawn)
 : ., -6.5
> COc1ccccc1NS(=O)(=O)c1cc2c(cc1Cl)NC(=O)CO2
 : ., -1.2
> Cc1cc(NCc2ccccn2)n2nc(C(F)(F)F)c(-c3ccccc3Cl)c2n1
 : -1.4, 1.6
> Brc1ccc(Nc2cc(N3CCCCC3)ncn2)cc1
 : -2.4, 1.3
> COc1ccc(Cc2nn3c(-c4ccc(F)cc4)nnc3s2)cc1
 : -0.29, 0.78
> Cc1cc(NC(=O)CSc2nc(-c3cccs3)nc3c2c(=O)n(C)c(=O)n3C)no1
 : -1.7, .
> CSc1ncc(Cl)c(C(=O)N2CCN(C)CC2)n1
 : -1.2, 2.6
> Cc1cccc(C2C=C(c3ccc(Br)s3)Nc3nnnn32)c1 (stereo not drawn)
 : -1.5, .
> O=C(O)c1cc(-c2cccs2)nc2ccc(Br)cc12
 : -9.5, .
> CN(C)c1ccc(/C=C/c2noc(-c3ccccc3O)n2)cc1
 : -0.57, -2
> O=C(NC(=O)N1CCSCC1)c1c(F)cccc1F
 : 1.1, .
> O=C(Nc1cccc(Cl)c1)c1nc(-n2cnnc2)ccc1Cl
 : ., 1.1
> Cc1c(C#N)c(-n2cccc2)n(CC2CC2)c1C
 : 3.4, .
> Nc1ccc(Nc2ccc([N+](=O)[O-])cc2[N+](=O)[O-])cc1
 : 1.3, .
> CN1CCN(CCNC(=O)CSc2c3c(nc4cc(Cl)ccc24)CCCC3)CC1
 : -5, -0.04
> CCc1nc(SC)c2c3c(sc2n1)COC(C)(C)C3
 : 0.39, 0.92
> Cc1cc(N2CCOCC2)n2nc(C(F)(F)F)c(-c3ccc(Cl)cc3)c2n1
 : -3, 1.1
> Cc1cc(NS(=O)(=O)c2cc(-c3ccc(=O)n(-c4c(C)noc4C)n3)ccc2C)no1
 : ., 0.75
> CCc1c(CN2CCN(Cc3ccccc3)CC2)csc1C
 : ., 1.7
> COC(=O)c1ccc(C2C(C(=O)OC(C)C)=C(C)NC3=C2C(=O)CC(C)(C)C3)cc1 (stereo not drawn)
 : 0.73, -1.2
> COc1cc2c(cc1OC)C(C)N(c1ncnc3onc(C)c13)CC2 (stereo not drawn)
 : ., 1.7
> O=C(O)CCCCCN1C(=O)c2ccccc2C1=O
 : -0.71, .
> CC(C)COc1ccc(COC2C(C(O)CO)OC3OC(C)(C)OC32)cc1 (stereo not drawn)
 : -1.1, .
> CN(C)CCOC(c1ccccc1)c1ccccc1
 : -1.2, 1.1
> O=S1(=O)N=C(SCc2ccccc2)Nc2ccc(F)cc21
 : ., 1.2
> CCc1ccc(-c2nc(C(N)=O)c3[nH]c(=O)n(-c4ccc(C)c(C)c4)c3n2)cc1
 : ., 0.41
> O=C(COCc1cc(-c2ccco2)on1)Nc1ccc(F)c(Cl)c1
 : ., 1.9
> O=C(NCc1noc2ccccc12)Nc1ccc(F)c(Cl)c1
 : ., 0.43
> O=C(O)C1CC(=O)N(Cc2cccs2)C1 (stereo not drawn)
 : -1.5, .
> O=C(c1ccc2nc(N3CCOCC3)sc2c1)N1CCN(C(=O)c2ccco2)CC1
 : 0.71, 0.24
> CCCCNC(=O)C1CCC(Cn2c(=O)c3sccc3n(CC(=O)N3CCCC3)c2=O)CC1 (stereo not drawn)
 : ., 1.8
> CCOC(=O)c1cn[nH]c1S(=O)(=O)N1CCC(C(N)=O)CC1
 : ., -0.05
> CCC(C)Nc1ncnc2cc(OC)c(OC)cc12 (stereo not drawn)
 : -1.5, .
> C=CCNc1nc2c(c(=O)[nH]c(=O)n2C)n1CCO
 : -1.3, -0.42
> COc1ccc(-c2noc(CN(C(C)C)S(=O)(=O)c3ccc(Br)cc3)n2)cc1
 : -0.3, 0.77
> Cn1c(=O)c2cn3c(c2n(C)c1=O)C(c1cccc2ccccc12)Nc1ccccc1-3 (stereo not drawn)
 : -0.7, -0.41
> O=c1c2ccccc2nc(SCc2cc(=O)n3ccccc3n2)n1-c1ccc2c(c1)OCO2
 : -1.6, .
> Cc1ccc(NS(=O)(=O)c2ccc(/C=C/c3onc(C)c3[N+](=O)[O-])cc2)cc1C
 : ., 0.96
> COc1ccc(OC)c(Nc2ncnc3onc(-c4ccccc4OC)c23)c1
 : ., 1.2
> C=C(C)COc1ccc2oc(C)c(C(=O)OC)c2c1
 : -3.5, 1.5
> Cn1c(-c2nnc(SCC(=O)NC(C)(C)C)o2)cc2ccccc21
 : -0.02, 2.3
> Nc1cccc(-c2cn3ccsc3n2)c1
 : ., 1.8
> CCNc1nc(NC)nc2c1cnn2C
 : ., 1.4
